Calb biofilm kill: clotrimazole potentiators killing C. albicans biofilm, primary screen, 4-compound mixtures. C. albicans biofilm persisters + clotrimazole, fluorescence viability; primary screen in compound mixtures of four per well. inhibition, % at 7.6 µM. 0.02% of 120,000 active. AID 1242, 2008;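 active means inhibition above 30.3% in the primary screen of four-compound pools, then above 30% when the compound was retested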;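 further: compounds exposed to preformed 24 h biofilms for 48 h; the number belongs to the whole pool; some results filed as inactive read as strong as hits; inactives centre near 12; 0% = biofilm with clotrimazole alone and 100% = kill control; retested singly at about 60 µM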
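Test system: C. albicans biofilms. Buffer or medium: RPMI/MOPS medium, pH 7.0. Timing: 48 h compound exposure at 37 °C. Technique: Alamar Blue fluorescence. Evaluation: percent inhibition of biofilm viability.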
An asterisk follows results filed as active. Only part of the results is shown. The share of hits here may be higher or lower than overall.

The opening two records (preview)
SMILES | Calb biofilm kill
O=S(=O)(c1ccccc1)N1CC1c1ccccc1 (stereo not given) | 6.9
O=Cc1cn(Cc2ccccc2[N+](=O)[O-])c2ccccc12 | 8.8

Results, from the start:
SMILES | Calb biofilm kill
O=S(=O)(c1ccccc1)N1CC1c1ccccc1 (stereo not given) | 6.9
O=Cc1cn(Cc2ccccc2[N+](=O)[O-])c2ccccc12 | 8.8
O=C1NC(=O)C(CCc2ccncc2)(Cc2ccc([N+](=O)[O-])cc2)C(=O)N1 | 21.5
Cc1ccc(-n2c(O)c(C=NCc3ccccn3)c(=O)[nH]c2=S)cc1 | 11.0
C=CCn1c(O)c(C(CC)=Nc2ccc(NC(C)=O)cc2)c(=O)[nH]c1=O | 8.2
COc1cc(/C=C(/C)[N+](=O)[O-])ccc1OCc1ccccc1Cl | 22.6
CC(O)CNc1ccc([N+](=O)[O-])c2cccnc12 (stereo not given) | 15.1
Cc1c(N=Nc2c(O)n(C)c(=O)n(C)c2=O)c(=O)n(-c2ccccc2)n1C | 16.8
CN1/C(=C\C=C2C(=O)NC(=O)NC2=O)C(C)(C)c2ccccc21 | 13.2
CCc1ccc(N2C(=O)NC(=O)/C(=C/c3ccsc3)C2=O)cc1 | 9.0
Cc1c(P(=S)(c2ccccc2)c2ccccc2)[n+]2ccccc2n1C | 15.9
Cc1cc(C=C2C(=O)N(C)C(=S)N(C)C2=O)c(C)n1-c1ccncc1 | 15.4
CCCn1c(C(=O)c2ccccc2)nc2ccccc21 | 11.8
Cc1ccc(CNC2=NCCS2)cc1 | 13.9
COc1ccc(CCn2c(O)c(/C=N/N3CCOCC3)c(=O)[nH]c2=O)cc1OC | 20.7
O=C1NC(=O)C(=Cc2ccc(Oc3ccc([N+](=O)[O-])cc3)cc2)C(=O)N1 | 14.5
COc1ccc(-n2c(-c3ccccc3)nc3ccccc3c2=O)cc1 | 24.0
O=C1NC(=O)N(c2ccc(Cl)cc2)C(=O)/C1=C/c1coc2ccc(O)cc2c1=O | 18.5
CCC(COC(=O)c1cc(OC)c(OC)c(OC)c1)(c1ccccc1)N(C)C (stereo not given) | 17.4
COc1ccc(C(=O)OC2CC[C@@]3(C)C4CCC5[C@]6(O)CC(O)[C@@]7(O)C(CN8CC(C)CCC8[C@@]7(C)O)[C@]6(O)C[C@@]53O[C@]24O)cc1OC (stereo not given in full) | 15.6
COP(=O)(OC)C(NC(=O)c1ccc(C)cc1)C(Cl)(Cl)Cl (stereo not given) | -2.3
CNC(=O)Oc1cccc2ccccc12 | 7.8
O=c1[nH]c(=O)n(Cc2ccco2)c(O)c1/C=N/N1CCCCC1 | 10.5
CC(=O)N1N=C(c2c(O)n(C)c(=O)n(C)c2=O)CC1c1ccccc1 (stereo not given) | 20.7
O=c1cccc2n1C[C@H]1C[C@@H]2CN2CCCC[C@@H]12 | 11.4
Cn1cc(NC(=O)CCl)cn1 | -0.5
CCN(C(=O)Oc1ccccc1)c1ccc(C(O)(C(=O)OC)C(F)(F)F)cc1 (stereo not given) | 19.1
CCN1C(=O)C(=Cc2ccc(C)s2)C(=O)N(CC)C1=S | 5.3
CCCCn1c(O)c(/C(CC)=N/N2CCCCC2c2cccnc2)c(=O)[nH]c1=S (stereo not given) | 9.1
Cc1cc([N+](=O)[O-])c2ccccc2[n+]1[O-] | 28.5
CCOC(=O)C1(CCc2ccccc2)CCN(Cc2cccc3c2OCO3)CC1 | 15.2
CC(=O)c1ccc2c(c1)C1C(Cl)C(Sc3ccccc3[N+](=O)[O-])CC1C(c1ccccc1[N+](=O)[O-])N2 (stereo not given) | 24.2
OC12ONC(c3ccccn3)C1N1CCC2CC1 (stereo not given) | 7.8
CCOC(=O)c1c(C)n(Cc2ccccc2)c2ccc(OCC(O)Cn3nc(C)cc3C)cc12 (stereo not given) | 18.7
CN(CC(=O)Nc1ccccc1-c1ccccc1)C1CCCCC1 | -2.9
Cc1c(C=O)c2ccccc2n1Cc1cccc(F)c1 | 15.9
CN(C)C(=O)Oc1ccc(Cl)c2cccnc12 | 23.0
O=C1N(c2cccc(Cl)c2)C(c2cccnc2)N2CCCN12 (stereo not given) | 18.6
Cc1c(N)c(C)c([N+](=O)[O-])c(C)c1[N+](=O)[O-] | 22.6
Cc1nn(Cc2ccccc2Cl)c(C)c1C(=O)OCC(=O)N1CC(C)OC(C)C1 (stereo not given) | 22.1
CN1CCN(c2ccc(F)cc2N)CC1 | 7.1
OC1/C(=C/c2ccc(F)cc2)N2CCC1CC2 (stereo not given) | 11.6
Cc1cc(Cl)ccc1OCCCC(=O)NCc1cccs1 | 9.2
COc1ccc(C(=O)C2CCCN(Cc3ccon3)C2)cc1OC (stereo not given) | 26.8
NCCc1c[nH]c2ccccc12 | 0.2
Cc1ccccc1C(=O)NC(Oc1ccccc1)C(Cl)(Cl)Cl (stereo not given) | 14.6
COc1ccc(N2C(=O)/C(=C/C=C/c3ccccc3[N+](=O)[O-])C(=O)NC2=S)cc1 | 14.8
CN1CCN(c2cn[nH]c(=O)c2Cl)CC1 | 11.0
CN(C)c1ccc(/C=C2/C(=O)NC(=O)N(CCc3ccc(F)cc3)C2=O)cc1 | 14.5
Cn1cccc1/C=C1/C(=O)NC(=O)N(C(C)(C)C)C1=O | 10.6

(more compounds)
SMILES | Calb biofilm kill
O=C(Cc1ccccc1)Oc1cccc(-n2cnnn2)c1 | 7.0
COP(=O)(OC)C(NC(=O)/C=C/c1ccccc1)C(Cl)(Cl)Cl (stereo not given) | 9.6
Cc1ccsc1C(=O)C1CCCN(Cc2cnc(N)nc2)C1 (stereo not given) | 11.1
Cc1c(C(c2ccc(O)cc2)c2c(O)c3ccccc3oc2=O)c(=O)n(-c2ccccc2)n1C (stereo not given) | 6.8
COc1cccc(C(=O)C2CCCN(Cc3ccon3)C2)c1 (stereo not given) | 7.8
Cc1ccc(-n2c(O)c(C=NCC3CCCO3)c(=O)[nH]c2=O)c(C)c1 (stereo not given) | 0.0
CC(C)CNP(=S)(c1ccccc1)C(C)(C)C (stereo not given) | 22.2
CCOC(=O)c1ccc(N=Cc2c(O)n(-c3ccc(OC)cc3)c(=S)[nH]c2=O)cc1 | 5.3
CCOP(=O)(OCC)C(O)c1ccc2c(c1)OCO2 (stereo not given) | 14.6
O=C(O)c1ccc(Cl)nc1 | 19.2

Entries above that contain a nitro group on carbon, in the order listed:
SMILES | Calb biofilm kill
O=Cc1cn(Cc2ccccc2[N+](=O)[O-])c2ccccc12 | 8.8
O=C1NC(=O)C(CCc2ccncc2)(Cc2ccc([N+](=O)[O-])cc2)C(=O)N1 | 21.5
COc1cc(/C=C(/C)[N+](=O)[O-])ccc1OCc1ccccc1Cl | 22.6
CC(O)CNc1ccc([N+](=O)[O-])c2cccnc12 (stereo not given) | 15.1
O=C1NC(=O)C(=Cc2ccc(Oc3ccc([N+](=O)[O-])cc3)cc2)C(=O)N1 | 14.5
Cc1cc([N+](=O)[O-])c2ccccc2[n+]1[O-] | 28.5
CC(=O)c1ccc2c(c1)C1C(Cl)C(Sc3ccccc3[N+](=O)[O-])CC1C(c1ccccc1[N+](=O)[O-])N2 (stereo not given) | 24.2
Cc1c(N)c(C)c([N+](=O)[O-])c(C)c1[N+](=O)[O-] | 22.6
COc1ccc(N2C(=O)/C(=C/C=C/c3ccccc3[N+](=O)[O-])C(=O)NC2=S)cc1 | 14.8

More compounds.
SMILES | Calb biofilm kill
CN(C)c1ccc(/C=C/C=C2/C(=O)NC(=O)N(c3ccccc3)C2=O)cc1 | 22.4
CN1CCC(N2CC3CC(C2)c2cccc(=O)n2C3)CC1 (stereo not given) | 7.7
CCn1c(O)c(C=Nc2ccc(S(N)(=O)=O)cc2)c(=O)n(CC)c1=S | 15.8
O=C(c1cccc2ccccc12)C1CCCN(C2CCC2)C1 (stereo not given) | 6.5
Cc1cccc(-n2c(O)c(C=NC34CN5CN(CN(C5)C3)C4)c(=O)[nH]c2=O)c1 | 11.1
C[C@@H]1O[C@@H](O[C@H]2C[C@@H](O)[C@]3(CO)[C@H]4[C@H](O)C[C@]5(C)[C@@H](C6COC(=O)C6)CC[C@]5(O)[C@@H]4CC[C@]3(O)C2)[C@H](O)[C@H](O)[C@H]1O (stereo not given in full) | 13.9
CCc1cc2c(s1)N(CC(=O)OC)C(=O)CN=C2c1ccccc1OC | 7.6
Cc1ccccc1-n1c(-c2ccc([N+](=O)[O-])cc2)nc2ccccc2c1=O | 20.4
O=C(Nc1ccccc1F)OC1CN2CCC1CC2 (stereo not given) | 2.8
CN1C(=O)/C(=C\N2CCc3ccccc32)C(=O)NC1=S | 14.6
Clc1cccc(C2NCc3ccccc3-n3cccc32)c1 (stereo not given) | 18.8
CN1CC2([N+](=O)[O-])CC=C(Cl)C([N+](=O)[O-])(C1)C2 (stereo not given) | 19.6
Cc1cccc(C(O)(C(=O)NNC(=O)CN2CCN(C)CC2)c2cccc(C)c2)c1 | 18.3
CN1CCN(c2cccc3c2C(=O)c2ccccc2C3=O)CC1 | 6.6
CC1CCCN(c2ccc(C(=O)N3CCC4(CC3)OCCO4)cc2[N+](=O)[O-])C1 (stereo not given) | 14.1
COC(=O)C1=COC(C)C2CN3CCC4(C(=O)Nc5ccccc54)C3CC12 (stereo not given) | 21.3
Cc1c(NC(NC(=O)CF)C(Cl)(Cl)Cl)c(=O)n(-c2ccccc2)n1C (stereo not given) | 8.3
O=C1NC(=S)N(Cc2ccco2)C(=O)/C1=C\c1cccs1 | 2.9
CC12CC[C@H]3[C@@H](CCC4(O)C[C@H](O)CCC34/C=N/NC(=O)c3ccccc3F)C1(O)CCC2C1=CC(=O)OC1 (stereo not given in full) | 20.6
COc1ccc(-n2c(-c3ccco3)nc3ccccc3c2=O)cc1 | 22.2
CC(=O)Nc1ccccc1C(=O)C(=O)Nc1cccc(C(=O)N2CCC3(CC2)OCCO3)c1 | 6.0
O=C1NC(=O)N(c2ccc(F)cc2)C(=O)/C1=C/c1ccc2c(c1)CCCN2Cc1ccccc1 | 18.5
COC(=O)C(O)(c1ccc(N(C)C)cc1)C(F)(F)F (stereo not given) | 3.9
O=C(O)c1sc2cc(Cl)ccc2c1Cl | 31.4
COc1ccccc1N1C(=O)NC(=O)/C(=C/c2ccc3c(c2)Cc2ccccc2-3)C1=O | 5.4
O=[N+]([O-])c1cc(F)c(N2CCCCC2)cc1Br | 12.1
Cn1c(O)c(/C=C2/C=CC=N2)c(=O)[nH]c1=O | 16.7
CCC[N+]12CCC(CC1)C(C(O)(c1ccccc1)c1ccccc1)C2 (stereo not given) | 3.8
CCCCCCNC(=O)N[C@@H](Cc1ccc(O)cc1)C(=O)NCCC[C@H]1CN2C(=NC[C@H]2C)N1CC1CCC1 | 14.3
CC(NC1=NCCS1)c1ccccc1 (stereo not given) | 8.0
CCCn1c(C)cc(C=O)c1C | 5.1
CCCNC1=C(C)C(=O)C2=C(C1=O)C(COC(N)=O)[C@]1(OC)C3NC3CN21 (stereo not given in full) | 23.9
O=C1NC(=O)C(=Cc2ccc(N3CCOCC3)o2)C(=O)N1 | 9.8
O=[N+]([O-])c1ccc(N2CCCCC2)c2ncccc12 | 3.1
COC(=O)C(O)(c1ccc(NC(=S)NC(=O)c2ccc(Cl)cc2Cl)cc1)C(F)(F)F (stereo not given) | 6.6
O=c1[nH]c(=S)n(C2CC2)c(O)c1C=NCc1cccnc1 | 21.4
CCN1CC2C3CCC(C)(O3)C2C1 (stereo not given) | 10.3
CC(=O)N1N=C(c2cccnc2)OC1c1ccccc1Cl (stereo not given) | 16.5
Cc1ccsc1C(=O)C1CCCN(Cc2cccc(OCCO)c2)C1 (stereo not given) | 21.8
Clc1ccc(Cn2ccnc2)cn1 | 5.2
Cc1cccc(OCC(=O)N2CCN(Cc3cccnc3)CC2)c1 | 11.3
CCOc1ccc(NC(=O)c2c(C)nn(Cc3ccccc3)c2Cl)cc1 | 13.3
Nc1ccc(Br)cc1C(=O)c1ccccc1 | -6.6
Cn1c(O)c(C2=NNC(c3ccc(Cl)cc3)C2)c(=O)n(C)c1=O (stereo not given) | -5.2
C=C(C)CSc1nnc([C@@H](N)Cc2ccccc2)o1 | -8.8
O=C(C[N+]12CCC(CC1)C(C(O)(c1ccccc1)c1ccccc1)C2)c1ccc(Br)cc1 (stereo not given) | 12.6
CNC(=O)Oc1cccc(-c2cn3cc(OC(=O)NC)ccc3n2)c1 | 24.1
CCCCCCCCN=Cc1c(O)[nH]c(=O)[nH]c1=O | 5.1
CCOc1ccc(-n2c(-c3cccs3)nc3ccccc3c2=O)cc1 | 24.6
O=P1(NCCCn2cc[n+](Cc3nc4ccccc4[nH]3)c2)C=C(c2ccccc2)OC(c2ccccc2)=C1 | 14.8

Additional records
SMILES | Calb biofilm kill
O=C(c1ccc(-c2ccccc2)cc1)C1CCCN(Cc2ccn[nH]2)C1 (stereo not given) | 27.9
CN1C(=O)N(C)C(=O)C2(Cc3cc([N+](=O)[O-])ccc3N(C)C2c2ccccc2)C1=O (stereo not given) | 7.1
Cc1ccc(N2C(=O)NC(=O)/C(=C\C=C\c3ccco3)C2=O)cc1C | 8.0
COc1ccc(C2CN(C)CC2C(=O)c2ccc(C)cc2)cc1Cl (stereo not given) | 12.5
Cc1cccc(OCC(=O)N2CCN(Cc3ccc([N+](=O)[O-])cc3)CC2)c1 | 12.2
CN1C(=O)NC(=O)/C(=C/c2ccc(C(=O)O)cc2)C1=O | 17.8
CC(=O)OC1C2CCC1C(N1CCCCC1)CC2 (stereo not given) | 15.8
COCc1cc(OC(=O)N(C)C)nc2c1c(C)nn2C | 10.9
OC1/C(=C/c2ccc(C(F)(F)F)cc2)N2CCC1CC2 (stereo not given) | 14.4
COc1ccccc1CN1CCN(Cc2ccc(Cl)cc2)CC1 | 8.9
CCC(C)NS(=O)(=O)c1ccc(OCC(=O)N2CCN(CC)CC2)cc1 (stereo not given) | 8.4
O=C(COc1ccc(Cl)cc1)N(c1ccc(Cl)cc1)C1CN2CCC1CC2 (stereo not given) | 12.7
CC(C)(C)C(=O)c1cn(Cc2ccccc2)c2ccccc12 | 20.2
C/C1=C\[C@@H](C)C/C=C/[C@H]2[C@@H]3O[C@]3(C)[C@@H](C)[C@H]3[C@H](Cc4c[nH]c5ccccc45)NC(=O)[C@]32C(=O)/C=C/C(=O)[C@@H]1O | 19.3

Bioassay records from PubChem.
